Vif TR-FRET: inhibitors of Vif binding to APOBEC3G peptide, primary screen, biochemical, TR-FRET, GST-Vif 1-94, biotin-A3G peptide, dose response retest (AID 1117319). actives 0.57% (n = 260,000). TR-FRET GST-Vif / biotin-A3G peptide binding; higher % means a stronger effect; test concentration not given here; strong numbers were not always called active. one-dose inhibition, %; IC50 in µM for titrated hits. Virion infectivity factor (Human immunodeficiency virus type 1 group M subtype B (isolate …;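 active = above the screen mean plus three standard deviations and confirmed in dose response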;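 also: Vif residues 1-94 fused to GST binding biotinylated APOBEC3G peptide 110-148; 0% = full assay without inhibitor and 100% = GST in place of GST-Vif; retest series ran down from 100 µM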
LANA-H2B inh: blockers of LANA interaction with H2A/H2B – biochemical, FP readout, HTS, primary screen. AID 2629, 2010. cell-free LANA-H2A/H2B peptide, fluorescence polarization. inhibition, % (test concentration not listed). actives 0.6% (n = 320,000); in the data active = inhibition mostly above about 10%, no sharp cut-off; inactive = mostly below about 6.7%;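 also: stock transfer was 7.5 nL into about 10 µL; 0% = median of vehicle wells and 100% = median of positive control wells; one replicate is shown; the record names a cut of 25% in any replicate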
Target sequence (Q9QR71 whole entry, looked up): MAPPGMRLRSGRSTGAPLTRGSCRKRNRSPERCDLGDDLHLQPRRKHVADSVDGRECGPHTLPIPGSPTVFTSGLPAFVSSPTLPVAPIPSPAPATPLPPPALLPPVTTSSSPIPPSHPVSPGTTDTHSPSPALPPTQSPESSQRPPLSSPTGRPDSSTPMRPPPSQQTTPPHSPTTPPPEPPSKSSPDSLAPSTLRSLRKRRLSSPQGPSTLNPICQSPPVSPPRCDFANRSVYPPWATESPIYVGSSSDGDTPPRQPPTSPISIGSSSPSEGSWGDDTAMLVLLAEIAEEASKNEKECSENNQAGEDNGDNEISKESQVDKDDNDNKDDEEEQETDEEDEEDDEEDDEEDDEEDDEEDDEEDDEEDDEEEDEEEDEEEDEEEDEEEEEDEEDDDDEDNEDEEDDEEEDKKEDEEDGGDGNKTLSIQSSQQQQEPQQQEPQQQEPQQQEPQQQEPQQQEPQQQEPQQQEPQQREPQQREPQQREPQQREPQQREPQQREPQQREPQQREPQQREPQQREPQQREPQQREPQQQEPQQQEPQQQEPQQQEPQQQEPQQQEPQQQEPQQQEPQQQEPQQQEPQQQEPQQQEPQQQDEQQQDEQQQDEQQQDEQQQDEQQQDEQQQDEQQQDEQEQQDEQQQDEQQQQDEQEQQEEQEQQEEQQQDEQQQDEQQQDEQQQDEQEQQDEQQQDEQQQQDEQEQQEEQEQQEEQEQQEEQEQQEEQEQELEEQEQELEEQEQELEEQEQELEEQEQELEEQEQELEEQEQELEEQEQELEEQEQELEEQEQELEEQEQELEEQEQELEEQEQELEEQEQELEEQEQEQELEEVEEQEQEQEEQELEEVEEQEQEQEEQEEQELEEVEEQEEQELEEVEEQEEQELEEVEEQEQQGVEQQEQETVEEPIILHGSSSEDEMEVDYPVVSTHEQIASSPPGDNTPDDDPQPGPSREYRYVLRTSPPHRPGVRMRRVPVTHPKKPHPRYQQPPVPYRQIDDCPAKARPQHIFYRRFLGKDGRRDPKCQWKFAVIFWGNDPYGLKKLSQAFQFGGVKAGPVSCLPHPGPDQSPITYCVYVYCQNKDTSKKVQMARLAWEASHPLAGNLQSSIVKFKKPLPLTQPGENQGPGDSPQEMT
UCH37 DUB inh: inhibitors of human UCH37 deubiquitinase, primary screen, biochemical, Ub-AMC cleavage, fluorescence | purified proteasome/UCH37 | inhibition, % (concentration not given with the values) | actives 0.33% (n = 330,000);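 active = mean of two replicates above 20%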;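 also: 0% = compound-free wells with enzyme and 100% = wells lacking proteasome; stock transfer was 100 nL into about 20 µL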
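Material: human UCH37 enzyme supplied as purified proteasome complex. Measure: % inhibition of Ub-AMC cleavage fluorescence. Medium: pH 7.4 Tris-HCl (50 mM) with ovalbumin, ATP-MgCl2, DTT. Times: 30 min preincubation with enzyme, 25 min cleavage at room temperature. Detection: AMC fluorescence intensity at 355/460 nm.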
E coli growth: E. coli growth inhibition, primary screen, OD600 | Escherichia coli growth, 23 h; stronger effect = lower value | OD600 absorbance (concentration not given with the values) | actives 0.21% (n = 330,000) | AID 1053175, 2014;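 active = OD600 absorbance below the run mean of sample wells minus 3.6 SD, in any replicate, cut at about 0.56 in these data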;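 also: stock transfer was 300 nL into about 60 µL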
HNF4A DNA FP: change in binding of human HNF4A to DNA, primary screen, biochemical, fluorescence polarization, FITC-DNA | Hepatocyte nuclear factor 4-alpha (Homo sapiens), P41235 | 1 h | activity change, % at 10 µM | actives 0.3% (n = 360,000); in the data active = activity change above about 30%, passing the limit was not always enough;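 also: controls were the assay level and a saturating level of protein; the project sought stronger binding though the title names inhibitors; some compounds called inactive have numbers as strong as hits; positive values seem to mean higher polarization but the record does not say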
A1 inh: caspase 3/7 activation in MEF A1-2A-BIM cells, primary screen, A1 inhibitor project, cell-based, luminescence, HTS. Caspase-Glo 3/7 luminescence, 3 h; percent of clofoctol response, vehicle zero. caspase activation, % (test concentration not listed). actives 0.066% (n = 330,000);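 active = over half of replicate activation scores above 10%, or exactly half above 10 with the replicate mean above 10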;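 also: wells of about 30 µL received 50 nL stock; many hits fall short of the cut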
B2AR ag: beta2AR agonists driving receptor internalization, primary screen, cell-based, FAP fluorogen, flow cytometry; Beta-2 adrenergic receptor (Homo sapiens), P07550; Am2.2-beta2AR cells; reference of the scale not given here; response, % (test concentration not listed); actives 0.43% (n = 340,000); AID 504454, 2011;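 active = response above a set limit, near 3 SD of response in nonfluorescent compounds, cut at about 42% in these data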;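 also: stock transfer was 100 nL into about 11 µL; a reference agonist was the positive control; negative values mostly stem from fluorescent compounds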
Starred values were filed as active, the others as inactive; . = no result given.

SMILES	Vif TR-FRET	LANA-H2B inh	UCH37 DUB inh	E coli growth	HNF4A DNA FP	A1 inh	B2AR ag
CC(=O)c1sc(NC(=O)c2cccc(N3C(=O)CCC3=O)c2)nc1-c1ccccc1	-115%	-9.0	-3.2	0.64	4.9	0.5	-5
NS(=O)(=O)c1cccnc1Nc1cccc(C(F)(F)F)c1	0%	3.4	-1.5	0.78	2.2	0.1	-3
O=C(CSc1nnc(-c2cccnc2)n1-c1ccccc1)Nc1ccccn1	-5%	4.0	0.5	0.73	1.4	0.6	-20
CNCc1c(C)nn(-c2ccccc2)c1C	.	-0.3	-1.0	0.7	-2.1	-0.2	-5
CCOC(=O)N/N=C(\C)c1ccc(-n2cnnn2)cc1	0%	1.3	.	.	4.5	-0.4	-7
Cc1nc(-c2ccc(S(=O)(=O)N3CCCN(CCc4ccccc4)CC3)s2)cs1	.	-4.2	.	.	-3.8	0.3	-5
Cc1cc(C(=O)OCn2nnc3ccccc3c2=O)c(C)n1-c1ccccc1	-2%	3.4	6.2	0.74	-3.0	-0.4	1
COC(=O)Cc1c(C)c2ccc(OCC(=O)N3CCCC(C)C3)c(C)c2oc1=O (stereo unspecified)	.	-0.1	-155	0.73	1.0	0.7	14
Cc1ccc(C(=O)N/N=C\C=C\c2ccc(Br)cc2)cn1	-5%	3.0	.	.	6.6	-0.1	-6
CCC(=O)N1CCN(c2ccccc2NC(=S)NC(=O)c2ccco2)CC1	.	12	4.5	0.71	-6.5	0.6	-2
O=C(NC(=S)NCCN1CCOCC1)c1ccc(Cl)cc1	.	0.3	1.0	0.7	-1.1	0.2	-14
Cc1cc(C)c(S(=O)(=O)N2CCC3(CC2)OCCN3S(=O)(=O)c2cccs2)c(C)c1	1%	.	5.1	0.73	0.5	.	-4
Cc1[nH]n(-c2ccccc2)c(=O)c1N=Nc1ccc(C(=O)O)cc1	-4%	1.0	12	0.68	1.9	-0.5	11
Cc1ccc(-c2nnc(-c3ccccc3)c(N3CCOCC3)n2)cc1	5%	-0.5	2.6	0.69	1.3	0.2	14
O=C(NCCN1CCCCCC1)C1CCCN1S(=O)(=O)c1cccc2nsnc12 (stereo unspecified)	20%	-1.2	0.7	0.69	2.4	0.3	3
COC(=O)C1=C(N)Oc2c(oc(CO)cc2=O)C1c1ccccc1F (stereo unspecified)	0%	1.3	1.4	0.76	-1.2	0.7	-3
CCCCNC(=O)CCCCC(=O)N/N=C/c1cccc(Cl)c1	-2%	-0.7	.	.	-0.6	-0.1	0
C[C@H](CO)N1C[C@H](C)[C@@H](CN(C)Cc2ccc3c(c2)OCO3)Oc2c(NC(=O)Cc3ccccc3)cccc2C1=O	.	-6.4	5.4	.	4.3	0.5	0
O=C(NC1CCCCCCC1)c1cc(COc2ccc3ncccc3c2)on1	1%	.	5.3	0.73	-0.3	.	3
CC(c1nnc(SCC(=O)Nc2cccnc2Cl)n1-c1ccccc1)N(C)C (stereo unspecified)	-9%	-4.2	2.7	0.72	-1.5	1.2	-7
CC(=O)c1sc(NC(=O)c2c(F)cccc2F)nc1C	-6%	0.4	10	0.8	0.9	1.8	7
O=C(COc1ccc(F)cc1Cl)Nc1nc(-c2ccccn2)cs1	.	-5.7	.	.	-1.0	-0.1	0
Cc1ccc(-n2ccc(=O)c(C(=O)Nc3ccc(S(=O)(=O)Nc4onc(C)c4C)cc3)n2)cc1	.	-6.0	14	0.64	-3.5	0.0	14
CCc1nnc(NC(=O)C2Cc3ccccc3CN2S(=O)(=O)c2c(C)c(C)cc(C)c2C)s1 (stereo unspecified)	4%	1.3	-1.1	0.68	1.9	-0.5	-6
Cc1ccc2[nH]c(=O)c(CN(CCCN(C)C)C(=O)Nc3cccc(Cl)c3)cc2c1	18%	1.2	0.4	0.65	4.9	-0.3	11

New compounds follow:
SMILES	Vif TR-FRET	LANA-H2B inh	UCH37 DUB inh	E coli growth	HNF4A DNA FP	A1 inh	B2AR ag
COc1cccc(OC)c1C(=O)Nc1nc2ccc(S(C)(=O)=O)cc2s1	2%	1.9	-0.4	0.73	-0.1	-0.2	8
Cn1c(C(=O)Nc2ccc3c(c2)OCCO3)cc2c(=O)n(C)c3ccccc3c21	-7%	2.7	-14	0.72	-0.7	0.8	11
Cc1cccc(NC(=O)CCS(=O)(=O)c2ccc(Cl)cc2)c1	1%	-6.4	-0.6	0.68	-2.3	0.0	-5
C/C=C/c1ccc(OCC(=O)N(C)CC(=O)Nc2ccc(F)cc2)c(OC)c1	.	0.1	.	.	5.3	1.7	3
Cc1cccn2c(=O)c3cc(C(=O)NCCN4CCOCC4)c(=N)n(CCCN4CCOCC4)c3nc12	.	3.0	-409	0.7	3.7	1.2	-6
O=C(CSc1nnc2ccccn12)c1ccc(OC(F)F)cc1OC(F)F	5%	1.1	-1.2	0.7	4.0	0.4	5
CN(NS(C)(=O)=O)c1c(C#N)c(C(F)(F)F)nn1C	-5%	2.1	0.9	0.66	-4.3	-0.3	3
C/C=N/NC(=O)c1cc(Br)ccc1O	14%	-2.7	.	.	1.3	0.8	5
N#CN/C(=N\S(=O)(=O)c1ccccc1)c1ccccc1	.	-4.1	3.1	0.68	0.4	1.4	-11
COc1ccc(NS(=O)(=O)c2cccc3nsnc23)cc1Cl	7%	0.3	6.4	0.66	1.5	-0.7	4
COc1ccc(/C=C/C(=O)OCC(=O)Nc2ccc3[nH]c(=O)[nH]c3c2)cc1OC	8%	-3.6	-8.7	0.68	3.2	0.9	12
O=c1[nH]c2cc(F)ccc2c2ccc(F)cc12	3%	.	.	.	-4.1	.	-5
COc1ccc(C2CC(=O)Oc3c(C(C)C)ccc(C)c32)cc1 (stereo unspecified)	4%	.	1.8	0.68	4.3	.	8
O=C(OCC(=O)N1N=C(c2ccc(Cl)cc2)CC1c1ccco1)c1ccccc1O (stereo unspecified)	-1%	3.2	-4.7	0.76	-1.9	0.3	-3
CCCN1CCC(=O)N([C@H](CSc2ccccc2)c2ccccc2)CC1	.	-6.4	5.1	0.81	-1.2	1.0	8
COc1cccc(-c2nnc(SCCOc3ccc4c(C)cc(=O)oc4c3)o2)c1	19%	2.0	-5.1	0.72	0.7	-0.4	-10
Cc1cccc(C(=O)OCC(=O)NCc2cccs2)c1	16%	-1.6	1.4	0.7	-2.8	0.4	-8
CCCOc1ccc(/C=C/C(=O)NC2CCCCC2)cc1OC	.	-8.6	1.8	0.69	-2.2	-0.7	-3
CCCCNC(=O)C1(O)c2ccccc2NC(=O)N1c1ccc(Cl)cc1 (stereo unspecified)	-7%	-1.1	4.5	0.62	3.1	0.4	-1
O=C1C=C(NCC2CCCO2)CC(c2ccccc2)C1 (stereo unspecified)	3%	.	-0.9	0.76	0.7	.	7
O=C(NCc1ccccn1)C1CCC(=O)N1C1CCCCC1 (stereo unspecified)	4%	1.9	2.8	0.74	-2.6	0.1	3
O=C(NNC(=O)C12CC3CC(CC(C3)C1)C2)c1cccc([N+](=O)[O-])c1	-5%	4.4	3.9	0.71	-4.6	0.0	-9
Cc1cc(/C=N/NC(=O)CC#N)c(C)n1-c1ccc([N+](=O)[O-])cc1	-7%	2.8	.	.	4.5	0.5	5
COc1ccc(C(CC(=O)Nc2nccs2)n2cccc2)cc1 (stereo unspecified)	14%	7.8	0.0	0.69	2.8	-2.4	8
Cc1c(C(=O)NCCSCc2c(Cl)cccc2Cl)cccc1[N+](=O)[O-]	8%	2.2	0.8	0.73	3.7	0.4	0

Of the compounds above, six contain two or more sulfur atoms.
SMILES	Vif TR-FRET	LANA-H2B inh	UCH37 DUB inh	E coli growth	HNF4A DNA FP	A1 inh	B2AR ag
Cc1nc(-c2ccc(S(=O)(=O)N3CCCN(CCc4ccccc4)CC3)s2)cs1	.	-4.2	.	.	-3.8	0.3	-5
Cc1cc(C)c(S(=O)(=O)N2CCC3(CC2)OCCN3S(=O)(=O)c2cccs2)c(C)c1	1%	.	5.1	0.73	0.5	.	-4
O=C(NCCN1CCCCCC1)C1CCCN1S(=O)(=O)c1cccc2nsnc12 (stereo unspecified)	20%	-1.2	0.7	0.69	2.4	0.3	3
CCc1nnc(NC(=O)C2Cc3ccccc3CN2S(=O)(=O)c2c(C)c(C)cc(C)c2C)s1 (stereo unspecified)	4%	1.3	-1.1	0.68	1.9	-0.5	-6
COc1cccc(OC)c1C(=O)Nc1nc2ccc(S(C)(=O)=O)cc2s1	2%	1.9	-0.4	0.73	-0.1	-0.2	8
COc1ccc(NS(=O)(=O)c2cccc3nsnc23)cc1Cl	7%	0.3	6.4	0.66	1.5	-0.7	4

Additional entries.
SMILES	Vif TR-FRET	LANA-H2B inh	UCH37 DUB inh	E coli growth	HNF4A DNA FP	A1 inh	B2AR ag
O=C(O)C1CC=C(Cl)CC1C(=O)NCc1ccccc1 (stereo unspecified)	1%	2.1	0.3	0.67	2.5	0.8	1
CCO[C@H]1OC(C(=O)NCc2ccccc2)=C[C@@H](c2ccccc2)[C@@H]1CCCO	-2%	-1.9	4.1	.	0.3	0.8	-2
COc1ccc(-c2c(-c3cc(OC)cc(OC)c3)n(C)c3ccc(-c4ccc(N(C)C)nc4)cc23)cc1	.	1.0	-79	0.72	-0.1	-0.5	-1
CCOC(=O)c1c(NC(=O)CSc2nc(C)cc(C)c2C#N)sc(C(C)=O)c1C	-1%	1.8	-5.9	0.71	-2.9	0.7	-5
Cc1ccc(-c2csc3ncn(CC(=O)NCC(c4ccco4)N4CCCC4)c(=O)c23)cc1 (stereo unspecified)	-10%	4.5	-0.9	0.71	-0.1	1.3	9
COc1ccc(NC(=O)COC(=O)c2ccc(Cl)c(S(N)(=O)=O)c2)c([N+](=O)[O-])c1	.	9.8	-0.2	0.67	1.8	0.2	2
Cn1ncc(N=Cc2ccccc2)c1C(N)=O	2%	5.2	7.8	0.73	0.8	0.0	-7

Screening data from PubChem.
